Screens from PubChem.
HIV TAR-Tat: HIV-1 TAR-Tat binding disruption; HIV-1 TAR RNA, Tat peptide displacement FRET; stronger effect = higher value; z-score (test concentration not listed); 100,000 compounds, 0.6% hits; AID 1259389;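 further: score is relative to mean and SD of negative controls; some compounds called inactive have numbers as strong as hits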
CDC25B CDK2 inh: human CDC25B-CDK2/CyclinA binding inhibition | z-score (test concentration not listed) | 94,000 compounds, 0.72% hits | HTRF CDC25B-CDK2/CyclinA binding, anti-His/anti-Flag; stronger effect = higher value | P30305+P24941;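 further: score is relative to mean and SD of negative controls; strong numbers were not always called active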
An asterisk follows results filed as active.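 How the source made its calls: active means z-score from 3 up in half or more of its runs; inactive means the rest.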

For O=C(Nc1cc(F)ccc1F)C1CCN(c2nnc(-n3cccc3)s2)CC1 the results were HIV TAR-Tat 0.99 and CDC25B CDK2 inh 0.03.
`COc1ccc(-c2nc(COc3ccc(Cl)cc3Cl)no2)cc1` gave CDC25B CDK2 inh -2.5.
`COCCCNc1nc2cc(OC)c(OC)cc2c2nc(-c3ccccc3)nn12` gave HIV TAR-Tat 0.83 and CDC25B CDK2 inh -1.9.
`Cc1oc(C(C)(C)C)cc1C(=O)Nc1ccccc1` gave CDC25B CDK2 inh -2.1.
`COc1cc(OC)c(NS(=O)(=O)c2ccc(C(=O)N3CCCC3)s2)cc1Cl` gave HIV TAR-Tat 0.49.
O=C1CCCC2=C1C(c1ccccc1)C1C(=O)c3ccccc3C1=N2 (configuration not stated) was read as HIV TAR-Tat 2.1 and CDC25B CDK2 inh -2.8.
CCOC(=O)c1c(C)[nH]c(C)c1S(=O)(=O)NC(C)(C)CC was read as HIV TAR-Tat -0.74.
`CN1C(C(=O)NCc2ccccn2)=CC(c2cccs2)=NS1(=O)=O` gave HIV TAR-Tat 2.1 and CDC25B CDK2 inh -2.4.
For O=C(c1ccccc1)N1N=C(c2ccccc2)CC1c1ccc2c(c1)OCO2 (configuration not stated) the results were HIV TAR-Tat 0.7 and CDC25B CDK2 inh -1.1.
Oc1cccnc1Cc1ccccc1 was read as HIV TAR-Tat 2.8 and CDC25B CDK2 inh 0.15.
Screening COC(=O)c1ccc(CSc2nnc3cc(C)c4ccccc4n23)o1 returned HIV TAR-Tat -0.8 and CDC25B CDK2 inh -0.26.
`CCOc1nc(N)nc(NC)n1` gave CDC25B CDK2 inh -0.49.
`CCn1nc(C)cc1-c1nnc(-c2ccccc2Cl)o1` gave CDC25B CDK2 inh -1.4.
CCOc1ccc(NS(=O)(=O)c2ccc3c(c2)S(=O)(=O)N=CN3)cc1 was read as HIV TAR-Tat -0.78.
For Cc1cc(C)c2oc(C(=O)Nc3nc4ccc(Cl)cc4s3)cc(=O)c2c1 the results were HIV TAR-Tat 2.1 and CDC25B CDK2 inh -1.7.
CCCCN(CC)CCCn1cnc2c([nH]c3ccccc32)c1=O was read as HIV TAR-Tat 1.2 and CDC25B CDK2 inh -0.3.
`COC(=O)c1cc(=O)c(O)c2c(O)c(O)ccc2c1` gave HIV TAR-Tat 25*.
Screening CCOC(=O)c1c(S(=O)(=O)Nc2ccc(Cl)cc2)c(C)n(-c2ccccc2)c1C returned CDC25B CDK2 inh -0.88.
`c1cc(CSC2=NCCS2)nc(CSC2=NCCS2)c1` gave CDC25B CDK2 inh -0.51.
For Cc1ccc(S(=O)(=O)NCCc2csc3nc(-c4ccccc4F)nn23)cc1C the results were HIV TAR-Tat 0.79.
For O=c1ccc(-c2ccc(S(=O)(=O)N3CCN(c4ccc(F)cc4)CC3)s2)n[nH]1 the results were HIV TAR-Tat 1.4.
`CCC(CC)C(=O)OCc1cc(=O)n2nc(C3CC3)sc2n1` gave HIV TAR-Tat -3.
`Cc1cc(C)n2ncc(C(=O)N3CCCC3)c2n1` gave HIV TAR-Tat -0.97.
COc1ccc(C2=NN(c3nc(C)cc(C)n3)C(=O)C2)cc1 was read as HIV TAR-Tat 0.94 and CDC25B CDK2 inh -3.

Continued, overlapping the part above by 2 compounds.
`Cc1cc(C)n2ncc(C(=O)N3CCCC3)c2n1` gave HIV TAR-Tat -0.97.
COc1ccc(C2=NN(c3nc(C)cc(C)n3)C(=O)C2)cc1 was read as HIV TAR-Tat 0.94 and CDC25B CDK2 inh -3.
For CC(c1ccccc1)C1C(C#N)=C(N)Oc2n[nH]c(-c3ccccc3)c21 (configuration not stated) the results were HIV TAR-Tat 2.6 and CDC25B CDK2 inh 0.74.
COc1ccc(-c2noc(NC3CCC(C)CC3)n2)cc1OC (configuration not stated) was read as HIV TAR-Tat 1.
`CCC(C)[C@H](N)c1nnc(SCc2cccc(Cl)c2)o1` (some centres not stated) gave HIV TAR-Tat -0.67 and CDC25B CDK2 inh -0.51.
`Cc1ccc2c(c1)CCCN2C(=O)c1sc2ccccc2c1Cl` gave CDC25B CDK2 inh 0.98.
For Cc1ccc(N2C(=O)C3C4c5ccccc5C(C(=O)O)(c5ccccc54)C3C2=O)cc1 (configuration not stated) the results were HIV TAR-Tat -0.09 and CDC25B CDK2 inh -0.72.
For O=C(c1cccs1)N1CCC(c2nc3ccccc3o2)CC1 the results were HIV TAR-Tat -2.7 and CDC25B CDK2 inh -0.88.
Screening CCC1(C)Cc2c(sc3[nH]c(=S)n(-c4ccc(OC)cc4)c(=O)c23)CO1 (configuration not stated) returned CDC25B CDK2 inh 0.7.
For N#CC1=C(N)OC2=C(C(=O)CCC2)C1c1ccccc1 (configuration not stated) the results were CDC25B CDK2 inh -1.9.
O=C(O)CCN1C(=O)C(=O)/C(=C(/O)c2ccccc2)C1c1ccc(Br)cc1 (configuration not stated) was read as CDC25B CDK2 inh -0.38.
For CCCNC(=O)CN(C)c1nnc(N2CCCC2=O)s1 the results were HIV TAR-Tat 1.4 and CDC25B CDK2 inh 0.66.
For Cc1ccn2cc(-c3cccc(S(=O)(=O)N4CCCC(C)C4)c3)nc2c1 (configuration not stated) the results were HIV TAR-Tat -2.6 and CDC25B CDK2 inh -0.56.
Screening CCOC(=O)C1=C(c2ccccc2)c2cc(Cl)ccc2S(=O)(=O)N1C returned HIV TAR-Tat 0.86 and CDC25B CDK2 inh 0.15.

Of the compounds above, 5 contain an NH in an aromatic ring:
CCOC(=O)c1c(C)[nH]c(C)c1S(=O)(=O)NC(C)(C)CC was read as HIV TAR-Tat -0.74.
CCCCN(CC)CCCn1cnc2c([nH]c3ccccc32)c1=O was read as HIV TAR-Tat 1.2 and CDC25B CDK2 inh -0.3.
For O=c1ccc(-c2ccc(S(=O)(=O)N3CCN(c4ccc(F)cc4)CC3)s2)n[nH]1 the results were HIV TAR-Tat 1.4.
For CC(c1ccccc1)C1C(C#N)=C(N)Oc2n[nH]c(-c3ccccc3)c21 (configuration not stated) the results were HIV TAR-Tat 2.6 and CDC25B CDK2 inh 0.74.
Screening CCC1(C)Cc2c(sc3[nH]c(=S)n(-c4ccc(OC)cc4)c(=O)c23)CO1 (configuration not stated) returned CDC25B CDK2 inh 0.7.

Continued:
CC1=Nc2ccccc2N=C(NC(=O)CSc2ccccn2)C1c1ccccc1 (configuration not stated) was read as HIV TAR-Tat 0.37.
`O=C(CSc1nc2sc3c(c2c(=O)[nH]1)CCCC3)NCc1ccco1` gave CDC25B CDK2 inh -0.9.
COc1ccc(Cl)cc1NC(=O)NCc1c(-n2cccc2)sc2c1CCN(C)C2 was read as HIV TAR-Tat -7.7.
For CC1=C(C(=O)OC2CCCN(C)C2)C2(O)C(=O)c3ccccc3C2(O)N1 (configuration not stated) the results were CDC25B CDK2 inh -0.97.
For COc1ccc(OCC(O)Cn2c[n+](C)c3cc(C)c(C)cc32)cc1 (configuration not stated) the results were HIV TAR-Tat -0.52 and CDC25B CDK2 inh -0.3.
COCCCNC(=S)NNC(=O)c1cc(OC)c(OC)c(OC)c1[N+](=O)[O-] was read as CDC25B CDK2 inh -1.4.
`CC(C)CCNC(=O)CSc1ncnc2c1sc1cccc(F)c12` gave HIV TAR-Tat 0.5.
For CNC(=O)c1c(NC(=O)c2nn(-c3ccc(F)cc3)ccc2=O)sc2c1CCCC2 the results were HIV TAR-Tat 0.67 and CDC25B CDK2 inh -0.11.
For COc1ccc(-c2nnc3c4ccccc4c(C)nn23)cc1S(=O)(=O)NC(C)C the results were HIV TAR-Tat 0.34 and CDC25B CDK2 inh -1.1.
Screening CC(C)(C)CC(C)(C)c1ccc(O)c(Cc2ccc(Cl)cc2Cl)c1 returned HIV TAR-Tat 0.28.
Cn1ncc(Br)c1NC(=O)C(C)(C)C was read as CDC25B CDK2 inh -2.7.
For NC[C@@H]1O[C@H](O[C@@H]2[C@@H](CO)OC(O[C@@H]3[C@@H](O)[C@H](N)C[C@H](N)[C@H]3O[C@H]3O[C@H](CO)[C@@H](O)[C@H](O)[C@H]3N)[C@@H]2O)[C@H](N)[C@@H](O)[C@@H]1O (some centres not stated) the results were HIV TAR-Tat 0.5.
CCOC(=O)C1CCN(c2ccccc2CN2CCCc3cc(C)ccc32)CC1 was read as CDC25B CDK2 inh -2.
CC(Cc1ccco1)NC(=O)C1CCN(c2nn3c(=O)c4c(nc3s2)CCCC4)CC1 (configuration not stated) was read as HIV TAR-Tat -0.34.
O=C(NCc1ccccc1Cl)Nc1cccs1 was read as HIV TAR-Tat -4 and CDC25B CDK2 inh -2.8.
O=C(c1cnc(N2CCCC2)nc1)N1CCCC1 was read as HIV TAR-Tat 0.42 and CDC25B CDK2 inh -0.98.
`Cc1cc2cc(CCNC(=O)CC(C)C)c(=O)[nH]c2cc1C` gave CDC25B CDK2 inh -0.22.
For Cc1cc(-c2ccc(C)c(S(=O)(=O)Nc3ccc(C)c(F)c3)c2)n[nH]1 the results were HIV TAR-Tat 1.3.
`CCSc1nc2c(c(=O)[nH]1)C(c1cccnc1)C(C(=O)OC(C)C)=C(C)N2` (configuration not stated) gave CDC25B CDK2 inh 0.43.
Cc1ccc(-n2nc(C)c3c(=O)oc(C)cc32)cc1 was read as CDC25B CDK2 inh -1.1.
For Cc1cc(OCc2cc(=O)n3c4c(sc3n2)CCCC4)ccc1Cl the results were HIV TAR-Tat 0.85 and CDC25B CDK2 inh -1.6.
For CCOC(=O)c1c(NC(C)=O)sc(C(C)=O)c1C the results were CDC25B CDK2 inh -0.15.
Cc1ccc(S(=O)(=O)Nc2ccc3c(c2)oc(=O)n3C)c(C)c1 was read as HIV TAR-Tat 1.3.
Cc1nc2ncnn2c(Sc2ccccc2N)c1C was read as HIV TAR-Tat -0.46 and CDC25B CDK2 inh -2.
For CCOC(=O)C(C)(C)Sc1nc2c(cnn2-c2ccc(Cl)cc2)c(=O)[nH]1 the results were CDC25B CDK2 inh -0.71.
Screening Cc1ccc(-c2noc(CSc3nc4ccccc4[nH]3)n2)cc1 returned CDC25B CDK2 inh -0.68.
For COC(=O)CC1C(=O)NCCN1C(=O)Nc1ccccc1 (configuration not stated) the results were CDC25B CDK2 inh 0.57.
For Clc1cccc(CN2CCN(Cc3ccco3)CC2)c1 the results were HIV TAR-Tat -0.47 and CDC25B CDK2 inh 0.
CN(CCO)c1ncnc2c1cnn2C was read as HIV TAR-Tat 1.9.
`Cc1ccc(Cl)cc1-n1ncc2c(NCC3CCCO3)ncnc21` (configuration not stated) gave HIV TAR-Tat 1.
Screening CCC(O)c1nc2ccccc2n1C(C)C (configuration not stated) returned HIV TAR-Tat -0.03 and CDC25B CDK2 inh -0.05.
`C=CCOc1ccc(C(=O)Nc2nonc2-c2ccc(OC(C)C)cc2)cc1` gave HIV TAR-Tat 0.13 and CDC25B CDK2 inh -1.4.
For O=C(Cn1c(=O)oc2cc(Br)ccc21)Nc1ccc(S(=O)(=O)N2CCOCC2)cc1 the results were HIV TAR-Tat -1.7 and CDC25B CDK2 inh -1.
For Fc1ccc(-c2noc3ncnc(NCc4ccc(Cl)cc4)c23)cc1 the results were HIV TAR-Tat -0.48.
`CCOC(=O)N1CCC(Nc2c(NC(C)CC)c(=O)c2=O)CC1` (configuration not stated) gave HIV TAR-Tat -1.2 and CDC25B CDK2 inh -2.2.
For O=C(Cn1c(=O)oc2cc(S(=O)(=O)N3CCCCCC3)ccc21)NCCC1=CCCCC1 the results were CDC25B CDK2 inh -0.56.
`CCN1C(=O)c2ccccc2Sc2ccc(NC(=O)N3CCN(C4CCCCC4)CC3)cc21` gave HIV TAR-Tat -0.57 and CDC25B CDK2 inh -0.25.
O=C(c1cn[nH]c1C1CCNCC1)N1CCN(c2ccccc2F)CC1 was read as HIV TAR-Tat -0.49.
For CCCC1=NN(c2ccc(Cl)cc2)C(=O)C1 the results were HIV TAR-Tat 0.59 and CDC25B CDK2 inh 6.2*.
For O=C(c1cncc(-c2cccs2)c1)N1CCN(C2c3ccccc3-c3ccccc32)CC1 the results were CDC25B CDK2 inh -1.
Screening CCN(c1ccccc1)S(=O)(=O)c1ccc2c(c1)CC(C)N2C(=O)C1CC1 (configuration not stated) returned HIV TAR-Tat 0.33.
Screening CCc1nnc2c(NCCCOC)nc3ccccc3n12 returned HIV TAR-Tat -0.42.
For O=C1CC(c2cccc(Cl)c2)C2=C(CC(c3cccs3)CC2=O)N1 (configuration not stated) the results were HIV TAR-Tat 0.61 and CDC25B CDK2 inh 2.5.
COc1cccc2c1c(NC(=O)c1cc(C)on1)nn2C was read as CDC25B CDK2 inh -0.48.
Screening CCOc1ccccc1NC(=O)Nc1cccc(S(N)(=O)=O)c1 returned CDC25B CDK2 inh -1.9.
COc1ccc(NC(=O)c2sc3nc4c(cc3c2N)CCCCC4)cc1Cl was read as CDC25B CDK2 inh 0.46.
O=S1(=O)N=C(Nc2nc3c(s2)CCCC3)c2ccccc21 was read as HIV TAR-Tat -0.71 and CDC25B CDK2 inh 0.14.
`CCCCOC(=O)C1=C(C)NC2=C(C(=O)CCC2)C1c1cccnc1` (configuration not stated) gave HIV TAR-Tat 1.8 and CDC25B CDK2 inh -1.1.
`O=C(Nc1nnc2n1CCS2)c1cccc(Cl)c1` gave HIV TAR-Tat 0.35.
For Cc1ccc2nc(NCc3ccc(F)cc3)c(-n3nc(C)cc3C)nc2c1 the results were HIV TAR-Tat 1.2 and CDC25B CDK2 inh -0.09.
Screening O=C(Nc1ccc(Br)cc1)N1CCN(Cc2nc3cccnc3n2-c2ccccc2)CC1 returned HIV TAR-Tat 2.1.
Screening COC(=O)c1cc2oc(C)cc2n1Cc1cc(=O)n2ccccc2n1 returned HIV TAR-Tat 0.03 and CDC25B CDK2 inh -3.8.
